# AID504770 = growth inhibition of E. coli YBA685, primary screen, V. cholerae RctB inhibitors. E. coli YBA685 rctB-dependent plasmid, OD600 growth, 3 h; stronger effect = lower value. z-score (test concentration not listed). actives 0.27% (n = 130,000);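 active = z-score under -2 on both plates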;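 also: wells of about 30 µL received 100 nL stock; score is relative to mean and SD of the test wells; the first replicate is given; strong numbers were not always called active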
# Ba CapD inh = Bacillus anthracis CapD inhibitors, primary screen, biochemical, fluorescence intensity | CapD gamma-glutamyltranspeptidase (Bacillus anthracis Ames Ancestor) | purified CapD enzyme, fluorescence intensity read-out; stronger effect = lower value; some hits fall short of the stated cut | z-score (concentration not given with the values) | actives 0.23% (n = 140,000) | AID 492967, 2010;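 active = z-score under -4 in either of two replicates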;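 also: stock transfer was 100 nL into about 40 µL; score is relative to mean and spread of the plate; one replicate is shown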
# An asterisk follows results filed as active; / = no result given. Not all compounds are listed, so the mix of outcomes need not match the whole.
SMILES,AID504770,Ba CapD inh
CN(/N=C/c1ncc(C(F)(F)F)cc1Cl)C(=O)Nc1ccc(Cl)cc1,0.3,-0.09
COC(=O)c1cccc(N2C(=O)c3ccc(C(=O)O)cc3C2=O)c1,-0.8,0.1
C=CCn1c(SCCN2CCCCC2)nnc1C1CCCCC1,0.2,/
CC(C)n1c(=O)c(=O)n(Cc2cccc(C(F)(F)F)c2)c2cc(S(C)(=O)=O)ccc21,/,0.35
CCC(=O)c1ccc(OCC(O)CN2CCN(S(=O)(=O)N3CCCCC3)CC2)cc1 (stereo not given),2.1,-0.74
CCOC(=O)C(C#N)=C1CCN(Cc2ccccc2)CC1,-0.95,1.2
CNC(=O)NNC(=O)c1cccnc1,/,0.23
O=C1c2ccccc2C(=O)N1c1cccnc1,0.4,0.075
NC(=O)c1cc(S(=O)(=O)N2CCOCC2)ccc1F,0.1,-2.4
Cc1ccc2c(c1)-c1c(ssc1=S)C(C)(C)N2C(=O)c1ccccc1Cl,/,-0.94
Cn1c(CNC(=O)c2ccccc2F)nnc1SCC(=O)N1N=C(c2cccs2)CC1c1ccc(F)cc1 (stereo not given),/,12
Cc1ccc(NC(=O)CC2(c3ccc(Br)cc3)C(=O)c3ccccc3C2=O)cc1,-1.5,0.15
CCc1ccc(NC(=O)c2cnc3sccn3c2=O)cc1,-0.1,0
CCC(Sc1nncn2c1cc1sccc12)C(=O)Nc1ccccc1C (stereo not given),-0.2,-0.55
CCCCNC(=O)C1CC(=O)N(c2ccc(Cl)cc2)C1 (stereo not given),-0.75,0.005
COc1cc(C2C(C(=O)OCC(C)C)=C(C)NC3=C2C(=O)CC(c2cccs2)C3)cc([N+](=O)[O-])c1O (stereo not given),/,-1.1
CN1CN=C(SCc2ccccc2)NC1,/,-0.54
CN(C)c1ccc(C2Nc3ccc4ncccc4c3C3=C2C(=O)CCC3)cc1 (stereo not given),-0.25,0.09
CC(C)Cn1c(CCCNC(=O)C(C)(C)C)nc2ccccc21,-0.55,0.02
CCC(Sc1nnc2c(n1)[nH]c1ccccc12)C(=O)Nc1ccc(S(N)(=O)=O)cc1 (stereo not given),0.2,-1.1
CCc1cc2c(cc3c(=O)n(CCCC(=O)NCc4ccccc4)ncn32)s1,0,-0.085
Cc1nnc(Nc2ccc3c(c2)nc2n3CCN(C3CCCCC3)C2)c2ccccc12,0.25,-0.46
c1ccc(CNc2nnc(-c3cccs3)c3ccccc23)cc1,-1.3,-0.34
O=S(=O)(c1ccc(Br)cc1)N1CCN(c2ncc(C(F)(F)F)cc2Cl)CC1,/,-0.63
COc1cc(CN2CCC(N3CCN(C)CC3)CC2)cc(OC)c1OC,-0.8,-0.36
Cc1ccc(S(=O)(=O)NC2CCCC2)cc1,-0.8,-0.08
CCOc1cc(-c2noc(N)c2C(=O)OC)cc(OCC)c1OCC,1.1,0.42
CCOC(=O)c1c(NC(=O)CCc2ccccc2)sc(C(=O)Nc2cccc(Cl)c2C)c1C,/,-0.09
COc1ccc(N(CCC#N)S(=O)(=O)c2ccc(Cl)cc2)cc1,0.25,/
N/C(CS(=O)(=O)Cc1ccco1)=N\O,0,-0.22
CCC(=O)Nc1ccccc1-c1nnc(SCc2ccccc2)[nH]c1=O,0.3,-0.33
COc1ccc(C2=NOC(C(=O)NC(C)C)C2)cc1 (stereo not given),0.45,-0.45
O=C(OCC1CCCCN1Cc1cccnc1)N1CCN(c2cc(C(F)(F)F)ccn2)CC1 (stereo not given),/,71
Cc1cc(NC(=O)N2CCC(CN3CCC(C)CC3)CC2)ccc1Br,-0.7,0.2
COC(=O)CNC(=O)c1coc2ccccc2c1=O,0.5,/
CC(C)Oc1ccc(NC(=O)C2COc3ccccc3O2)cc1 (stereo not given),0.7,/
CCOC(=O)C1=C(C)NC(=O)NC1c1cc(Br)c(OC(C)=O)c(OC)c1 (stereo not given),/,-0.51
O=C(O)CCCC(=O)Nc1ccccc1N1CCOCC1,0.7,0.41
O=C(O)c1cnc(SCC(=O)N(C2CCCCC2)C2CCS(=O)(=O)C2)n1-c1ccc(F)cc1 (stereo not given),-0.4,/
COc1cccc(C2Nc3ccccc3C(c3ccccc3)(c3ccccc3)O2)c1OC (stereo not given),/,-0.21
O=C(O)C1CCN(c2nc3ncccc3nc2-c2ccccc2)CC1,-0.65,1.3
CC(C)(C)c1ccc(OC/C(N)=N/O)cc1,1.9,0.17
CCc1ccccc1NC(=S)N1CCC(N(C)CCN2CCOCC2)CC1,-0.8,-0.71
CN1CCN(c2ccc(-c3ccnn3C(=O)Nc3ccccc3)cc2)CC1,/,5
COc1cc(C2CC(=O)C=C(O)C2)cc(OC)c1OC (stereo not given),-0.8,1.3
COc1cc(/C=N/NC(=O)c2cc(Cl)ccc2OC)ccc1O,/,0.41
COC(=O)c1c(C(=O)OC)c2n(c1C)CCC2,0.45,0.55
CNC(=O)CSc1nnc(C(F)(F)F)n1N,1.6,/
COc1ccc(CSCC(=O)NC2CC3CCC(C2)N3C)cc1 (stereo not given),-0.4,0.39
Cc1ccc(Cl)cc1N1CCN(C(=O)C2CCCN(S(=O)(=O)c3cnc[nH]3)C2)CC1 (stereo not given),-0.45,0.51
O=S(=O)(c1ccc(Cl)cc1)N1CCOCC1,0.85,0.31
Cc1nc(CSCc2ccc(Cl)cc2Cl)cs1,0.15,0.18
CN(C(=O)COC(=O)c1ccccc1C(=O)N1CCN(c2ccccc2)CC1)c1ccccc1,-0.4,/
Cc1ccccc1-n1cc(-c2ccc(Br)cc2)nc1SCC(N)=O,-0.1,-0.59
O=C(Cn1ncc2ccc(Cl)cc21)NC1CCCC1,-1.2,0.66
CCOC(=O)c1c(C=O)oc2c(C)cc(OC(=O)c3ccccc3C)c(Br)c12,/,0.77
COc1ccccc1C(CNc1nc(C(F)(F)F)nc2ccccc12)N(C)C (stereo not given),-0.15,/
COc1ccccc1NNC(=O)c1cccnc1Oc1ccccc1,0.25,-0.14
CC(C)Cc1nc2ccccc2[nH]1,-0.6,-1.3
CCCCCn1cnc2c1c(=O)[nH]c(=O)n2C,-0.25,/

# Part of the list above in order of heavy-atom count, highest first:
SMILES,AID504770,Ba CapD inh
CN(C(=O)COC(=O)c1ccccc1C(=O)N1CCN(c2ccccc2)CC1)c1ccccc1,-0.4,/
Cc1ccc(Cl)cc1N1CCN(C(=O)C2CCCN(S(=O)(=O)c3cnc[nH]3)C2)CC1 (stereo not given),-0.45,0.51
CCOC(=O)c1c(C=O)oc2c(C)cc(OC(=O)c3ccccc3C)c(Br)c12,/,0.77
CCc1ccccc1NC(=S)N1CCC(N(C)CCN2CCOCC2)CC1,-0.8,-0.71
COc1ccccc1NNC(=O)c1cccnc1Oc1ccccc1,0.25,-0.14
Cc1ccccc1-n1cc(-c2ccc(Br)cc2)nc1SCC(N)=O,-0.1,-0.59
COc1cc(/C=N/NC(=O)c2cc(Cl)ccc2OC)ccc1O,/,0.41
COc1cc(C2CC(=O)C=C(O)C2)cc(OC)c1OC (stereo not given),-0.8,1.3
O=C(Cn1ncc2ccc(Cl)cc21)NC1CCCC1,-1.2,0.66
Cc1nc(CSCc2ccc(Cl)cc2Cl)cs1,0.15,0.18
CNC(=O)CSc1nnc(C(F)(F)F)n1N,1.6,/
CC(C)Cc1nc2ccccc2[nH]1,-0.6,-1.3

# Additional records follow:
SMILES,AID504770,Ba CapD inh
COc1ccc2c(c1)-c1c(ssc1=S)C(C)(C)N2C(=O)CN1CCC(C(N)=O)CC1,/,0.12
COc1ccc(C(=O)N(c2ccccn2)c2ccccn2)cc1OC,-0.6,/
CC(=O)C1=C(C)NC(SCC(=O)c2ccc(-c3ccccc3)cc2)=C(C#N)C1c1sccc1C (stereo not given),/,-1.1
CC(C)(C)C1(C)OC(=O)C(=Cc2ccc(C(=O)O)cc2)C(=O)O1 (stereo not given),-0.2,-1.4
CC(=O)N[C@H]1[C@H](Oc2ccc(C)cc2)O[C@H](COC(C)=O)[C@@H](OC(C)=O)[C@@H]1OC(C)=O,/,0.11
O=C(CSc1nc2c(c(=O)[nH]1)CN(Cc1ccc(Cl)cc1)CC2)NCc1ccccc1,0.3,/
CCC(=O)Nc1ccccc1C(=O)Nc1ccccc1,-2.3,0.15
Cc1cccn2cc(-c3cccc(S(=O)(=O)N4CCOCC4)c3)nc12,-0.85,22
COC(=O)Cn1c(=N)n(C)c2ccccc21,-0.25,-0.24
CCCc1cc(=O)[nH]c(SCC(=O)NC(C)(C)C)n1,1.6,/
COc1cccc(C(=O)N2c3ccccc3N3C(c4c(C)cc(C)cc4C)=NON23)c1,/,-1.2
CN(CC(=O)Nc1ccccc1)C(=O)c1ccccc1,0.1,-0.12
COCCNC(=O)c1cc(Br)c(C)c(C)c1C,-0.55,/
Cn1c(-c2ccc(C#N)cc2)nc(=O)c2cc(Cl)ccc21,-1,0.04
C=CCn1c(=S)[nH]c2scc(-c3ccc(OC)cc3)c2c1=O,/,0.13

# Full records, quoted from the list. Order of screens: AID504770	Ba CapD inh
# Results for COCCNC(=O)c1cc(Br)c(C)c(C)c1C → -0.55	/
# Results for COc1ccc2c(c1)-c1c(ssc1=S)C(C)(C)N2C(=O)CN1CCC(C(N)=O)CC1 → /	0.12

# Additional structures
SMILES,AID504770,Ba CapD inh
CCCOc1ccc(C(=O)N(C)c2ccccc2)cc1,-0.65,0.15
COc1cccc(Cn2ncn(-c3ccc(Br)cc3)c2=O)c1,/,-0.53
CC(=O)Oc1ccc2c(=O)c(Oc3ccccc3)coc2c1,-0.75,/
CCOc1ccc(-n2c(O)c(C=Nc3cc(C)on3)c3ccccc3c2=O)cc1,0.75,/
Cc1ccc(N(CC(=O)Nc2ccc(Br)cc2)S(=O)(=O)c2c(C)n[nH]c2C)cc1,0.2,-0.23
CCN(c1cccc(C)c1)S(=O)(=O)c1cc2[nH]c(=O)c(=O)[nH]c2cc1C,0,15
Cc1cccc(-n2nc3c(c2NC(=O)c2ccc(S(=O)(=O)N4CCCCC4)cc2)CSC3)c1C,/,-0.43
COc1ccc(C2C(C#N)=C(N)Oc3n[nH]c(-c4ccc(OC)c(OC)c4)c32)cc1O (stereo not given),/,-0.065
Oc1c(C(O)(C(F)(F)F)C(F)(F)F)ccc2cccnc12,-0.1,0.4
COc1cccc(NS(=O)(=O)c2cc(C(=O)N3CCCC3)ccc2NCCc2ccc(Cl)cc2)c1,/,-0.09
O=C(c1ccccc1NS(=O)(=O)c1ccc(F)cc1)N1CCN(c2ccccc2F)CC1,-1,/
CN(C)c1ccc(-c2cc(-c3ccccc3)c(C#N)c(N)n2)cc1,2,/
CN(C)/C=N/c1nnc(Sc2ncccc2[N+](=O)[O-])s1,/,-2.2
Cc1c(NC=O)c(=O)n(-c2ccccc2)n1C,-0.05,/
COc1cc(OC)cc(C(=O)NCC2COc3ccccc3O2)c1 (stereo not given),/,0.15
Cc1c(C(=O)Nc2cnc3ccccc3c2)sc2ncnc(N3CCC(C)CC3)c12,/,-0.4
O=C(CCSCc1cnn(-c2ccccc2)c1-n1cccc1)N1CCOCC1,-0.95,-0.89
CSc1c(C#N)c(N)nc2sc(C(=O)c3ccc(F)c(F)c3)c(N)c12,1.2,0.055
O=C(NCC(=O)N1CCN(c2ccccc2)CC1)c1ccncc1,/,1
COc1ccc(-n2cnc3cc(C(=O)NCc4ccccn4)ccc32)cc1,0.45,0.27
COc1cc2c(cc1OC)CN(Cc1cc(=O)n3c(-c4ccccc4)csc3n1)CC2,-0.6,/
CCOC(=O)C1=C(C)NC(=O)C1,0.15,0.78
Cc1nc(=O)c(-c2ccccc2)c(C)n1Cc1ccccc1,2.2,/
CCc1ccnc(NS(=O)(=O)c2ccc(C)c(Cl)c2)c1,-0.75,14
CCCc1cc(=O)[nH]c(SC/C=C/c2ccccc2)n1,0,0.35
Nc1[nH]c(=O)[nH]c(=O)c1N=Nc1ccc2c(c1)OCCO2,-0.1,/
COc1ccc(C(=O)OCC(=O)N2CCCCC2)cc1,-1,/
N#Cc1ccc(-c2ccncc2)nc1SCC(=O)Nc1ccccc1[N+](=O)[O-],/,-0.065
CC(C)CNC(=O)c1ccc2c(c1)C(=O)N(C1CCCCC1)C2=O,0.8,0.02
CCCSc1ncc(Cl)c(C(=O)Nc2nc(C)c(C(=O)OCC(C)C)s2)n1,-0.75,-0.39
O=C1CC(C(=O)N(Cc2ccccc2)c2ccccc2)CN1Cc1ccco1 (stereo not given),0.6,/
CCOC(=O)N1CCC(NC(=O)c2cc(C(=O)NCC(OC)OC)ccc2CO)CC1,-0.4,-0.4
Cc1nc2ccccn2c1-c1csc(Nc2ccc(Br)cc2Br)n1,-0.35,0.4
Cc1ccc(COC(=O)c2cccn2C)cc1,-0.45,/
CCN1C(=O)/C(=C/c2nc3ccccc3c(=O)n2-c2ccccc2[N+](=O)[O-])c2ccccc21,/,0.59
COC(=O)CSc1nc(-c2ccccc2)cc(-c2ccc(OC)cc2)c1C#N,/,-0.04
Cc1ccccc1C(=O)N1CCc2c([nH]c3ccccc23)C1,/,0.37
S=C1SCN(CC2CC2)CN1CC1CC1,/,-0.61
CCC(=O)NC(=S)Nc1cc(-c2nc3ccccc3o2)ccc1OC,-0.2,0.35
Cn1c(C(C#N)S(=O)(=O)c2ccc(Br)s2)nc2ccccc21 (stereo not given),0.15,/
CCOC(=O)C1CCN(c2ccccc2CN2CCC(c3ccccc3OC)CC2)CC1,-0.85,0.45
C=CCNC(=O)c1ccc(-c2nc(-c3cccc(C(F)(F)F)c3)cs2)cc1,/,15
Clc1nccc2nc(N3CCCC3)ncc12,-0.25,-0.82
O=C(CCCCn1c(=O)[nH]c2ccsc2c1=O)N1CCCCC1,-0.35,-0.42
O=S(=O)(/C=C/c1ccccc1)N1CCN(Cc2ccccc2)CC1,-0.4,0.09
COc1ccc(/C(=C\Nc2ccc(Cl)cc2Cl)C(C)=O)cc1OC,/,-0.32

# Screens: PubChem BioAssay, ICCB-Longwood Screening Facility, Harvard Medical School
